High-throughput results: PubChem BioAssay, several laboratories
PrP UTR inh = suppresses PrP 5' UTR mRNA reporter expression; cell-based PrP 5' UTR mRNA reporter, plate reader; inhibition, % (test concentration not listed); 340,000 compounds, 0.35% hits; AID 488862;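 active = every replicate at 50% or more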;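 note: 0 = median of the neutral control wells; tested in H4 reporter cells; numbers are from one replicate; inactives centre near -14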
ugtP null kill = growth inhibition of S. aureus ugtP deletion strain; 330,000 compounds, 0.54% hits; growth inhibition, % (concentration not given with the values); AID 1259309; S. aureus RN4220 ugtP deletion, OD600 growth, 16 h; some inactives read as strong as hits;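 active = z-score under -3 and OD600 up to 0.15 on both plates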;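 note: plate controls were untreated wells for no effect and antibiotic for full effect; wells of about 80 µL received 100 nL stock; the first replicate is given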
RN4220 kill = S. aureus RN4220 growth inhibition; OD600, 16 h; inhibition, % (concentration not given with the values); 330,000 compounds, 0.33% hits;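 active = z-score of -3 or lower and OD600 up to 0.18 on both plates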;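 note: plate controls were untreated cells for no effect and reference antibiotic for full effect; stock transfer was 100 nL into about 80 µL; one replicate is shown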
Mtb hypoxia inh = Mtb hypoxia fluorescent reporter inhibition. AID 1159583. 300,000 compounds, 0.1% hits. M. tuberculosis hypoxia-regulated fluorescent reporter, fluorescence. fluorescence inhibition, % (concentration not given with the values);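 active = 35 to 45% if threefold the growth effect, above 45% if 1.5-fold the growth effect; inactive = the rest, general growth blockers included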;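 note: wells of about 50 µL received 100 nL stock; 0% = vehicle wells and 100% = reference inhibitor wells; whole bacteria with a GFP reporter of the hypoxia response; strong numbers were not always called active; many hits fall short of the cut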
Bead autofluor = counter-screen for toxin protease inhibitors: compound fluorescence. 360,000 compounds, 3.1% hits. compound autofluorescence counterscreen, microsphere flow cytometry; active compounds read high. fluorescence intensity (test concentration not listed);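 active = at least 3 SD above the mean of all compounds, about 16000 in these data; inconclusive = too few beads counted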;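 note: 100 nL of 1 mM stock went into each well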
BJeLR lethal = kills HRASV12-expressing BJeLR cells; BJeLR (HRASV12) viability, CellTiter-Glo ATP luminescence, 48 h; reference of the scale not given here; inhibition, % (test concentration not listed); 300,000 compounds, 0.17% hits; AID 1554;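 active = replicate mean above 50%; inconclusive = above 50% but judged a plate artefact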;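 note: 50 nL library stock added to about 25 µL; numbers are from one replicate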
Mtb hypoxia inh growth = second read-out of Mtb hypoxia inh, no call of its own (marks repeat the call); growth inhibition, %; measured here: M. tuberculosis growth (absorbance);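 0% = vehicle and 100% = reference antibiotic; read after six days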
The depositor's hits bear a star; u = inconclusive; x = not tested or not shown; & = joins results of further samples.

Start of the listing, in advance:
Assay codes – A = PrP UTR inh; B = ugtP null kill; C = RN4220 kill; D = Mtb hypoxia inh; E = Mtb hypoxia inh growth; F = Bead autofluor; G = BJeLR lethal
CC1CN(C(=O)c2cccc(C(=O)N3CC(C)OC(C)C3)c2)CC(C)O1 (stereo not drawn)
  A: -11; B: -5; C: 2.7; D: x; E: x; F: 2705; G: -2

COc1ccc2nc(N=Cc3cccc(OC)c3O)sc2c1
  A: x; B: 14; C: 0.8; D: 10; E: 5; F: x; G: x

Cc1cc(=O)n(-c2ccc(C(=O)O)cc2)[nH]1
  A: -11; B: -3; C: 7.8; D: 6; E: 5; F: 4520; G: 1

COc1ccccc1NC(CC(=O)c1ccccc1)C(=O)OCC(=O)c1ccc(C)c(C)c1 (stereo not drawn)
  A: -45; B: 26; C: 5.0; D: 7; E: 4; F: 11125; G: -10

CCOC(=O)C1CCN(S(=O)(=O)c2ccc(NC(C)=O)c(Cl)c2)CC1
  A: -10; B: 1; C: -3.0; D: -3; E: 4; F: x; G: 7

N#C/C(=C(/O)c1ccc(Br)s1)c1nc2ccccc2[nH]1
  A: -34; B: -4; C: 3.8; D: -1; E: 9; F: 5560; G: 12

Cc1cc(C)nc(NS(=O)(=O)c2ccc(NC(=O)c3ccco3)cc2)n1
  A: -8; B: -3; C: 2.9; D: x; E: x; F: 4778; G: 5

COc1cc(CCC(=O)OCC(=O)Nc2ncc(Cl)cc2Cl)cc(OC)c1OC
  A: -12; B: -8; C: 2.6; D: x; E: x; F: 2337; G: -7

COc1cccc(C2C(C#N)=C(N)N(N(C)C)C3=C2C(=O)CC(C)(C)C3)c1 (stereo not drawn)
  A: 2; B: 0; C: -1.0; D: 12; E: -3; F: 3753; G: -1

Cc1cc(=O)n(C2CCS(=O)(=O)C2)[nH]1 (stereo not drawn)
  A: -10; B: 7; C: 3.8; D: 19; E: 6; F: 4620; G: x

COc1ccc(NC(=O)CN2CCN(C(=S)NC3CCCC3)CC2)cc1
  A: 4; B: 6; C: 3.3; D: 16; E: 9; F: 4589; G: -2

CC(=O)N1CC=CC1(CC(C)C)C(=O)NCc1cc(F)cc(C(F)(F)F)c1 (stereo not drawn)
  A: -16; B: -3; C: -1.9; D: -1; E: -4; F: 4085; G: -4

The whole of this part, from the first entry:
Assay codes – A = PrP UTR inh; B = ugtP null kill; C = RN4220 kill; D = Mtb hypoxia inh; E = Mtb hypoxia inh growth; F = Bead autofluor; G = BJeLR lethal
CC1CN(C(=O)c2cccc(C(=O)N3CC(C)OC(C)C3)c2)CC(C)O1 (stereo not drawn)
  A: -11; B: -5; C: 2.7; D: x; E: x; F: 2705; G: -2

COc1ccc2nc(N=Cc3cccc(OC)c3O)sc2c1
  A: x; B: 14; C: 0.8; D: 10; E: 5; F: x; G: x

Cc1cc(=O)n(-c2ccc(C(=O)O)cc2)[nH]1
  A: -11; B: -3; C: 7.8; D: 6; E: 5; F: 4520; G: 1

COc1ccccc1NC(CC(=O)c1ccccc1)C(=O)OCC(=O)c1ccc(C)c(C)c1 (stereo not drawn)
  A: -45; B: 26; C: 5.0; D: 7; E: 4; F: 11125; G: -10

CCOC(=O)C1CCN(S(=O)(=O)c2ccc(NC(C)=O)c(Cl)c2)CC1
  A: -10; B: 1; C: -3.0; D: -3; E: 4; F: x; G: 7

N#C/C(=C(/O)c1ccc(Br)s1)c1nc2ccccc2[nH]1
  A: -34; B: -4; C: 3.8; D: -1; E: 9; F: 5560; G: 12

Cc1cc(C)nc(NS(=O)(=O)c2ccc(NC(=O)c3ccco3)cc2)n1
  A: -8; B: -3; C: 2.9; D: x; E: x; F: 4778; G: 5

COc1cc(CCC(=O)OCC(=O)Nc2ncc(Cl)cc2Cl)cc(OC)c1OC
  A: -12; B: -8; C: 2.6; D: x; E: x; F: 2337; G: -7

COc1cccc(C2C(C#N)=C(N)N(N(C)C)C3=C2C(=O)CC(C)(C)C3)c1 (stereo not drawn)
  A: 2; B: 0; C: -1.0; D: 12; E: -3; F: 3753; G: -1

Cc1cc(=O)n(C2CCS(=O)(=O)C2)[nH]1 (stereo not drawn)
  A: -10; B: 7; C: 3.8; D: 19; E: 6; F: 4620; G: x

COc1ccc(NC(=O)CN2CCN(C(=S)NC3CCCC3)CC2)cc1
  A: 4; B: 6; C: 3.3; D: 16; E: 9; F: 4589; G: -2

CC(=O)N1CC=CC1(CC(C)C)C(=O)NCc1cc(F)cc(C(F)(F)F)c1 (stereo not drawn)
  A: -16; B: -3; C: -1.9; D: -1; E: -4; F: 4085; G: -4

CC(CC(=O)Nc1ccc(C)c(Cl)c1)=NNC(=O)C1CCCCC1
  A: x; B: -3; C: 3.0; D: 11; E: 8; F: x; G: x

O=C(Cn1cc(Br)ccc1=O)Nc1ccc2c(c1)OCO2
  A: -32; B: 3; C: 4.6; D: 0; E: -5; F: 9351; G: x

CC1CCCCN1CC(O)COCCC12CC3CC(CC(C3)C1)C2 (stereo not drawn)
  A: 6; B: -12; C: -1.7; D: -7; E: -2; F: 3765; G: 18

COc1ccc(-n2nnnc2SCC(=O)c2ccc3c(c2)OCCO3)cc1
  A: -8; B: -2; C: 2.2; D: x; E: x; F: 4560; G: 4

COc1ccc(/C=C/C2=CC(C)(C)NC(=S)N2)cc1
  A: -22; B: -3; C: 4.0; D: 2; E: 3; F: 4433; G: -4

Cc1cc(C(=O)N2CCN(c3ncccc3C#N)CC2)no1
  A: -11; B: 13; C: 2.9; D: 18; E: 2; F: 3852; G: -7

C=CCNC(=O)C1CC(=O)N(c2ccc(OCC(=O)Nc3ccc(Cl)cc3)cc2)C1 (stereo not drawn)
  A: -11; B: 16; C: 2.5; D: 1; E: 8; F: u; G: 8

CN(C(=O)COC(=O)/C=C/c1cn(-c2ccccc2)nc1-c1ccc2c(c1)OCCO2)C1CCS(=O)(=O)C1 (stereo not drawn)
  A: -38; B: 18; C: 3.3; D: 3; E: 8; F: 3743; G: -9

CCOc1ccc(CNC(=S)Nc2ccccc2)cc1Cl
  A: -18; B: -4; C: 2.9; D: 2; E: 15; F: 3942; G: 1

CC(C(=O)O)c1ccc(N2Cc3ccccc3C2=O)cc1 (stereo not drawn)
  A: 27; B: x; C: x; D: x; E: x; F: 4245; G: 16

CC1=CC(c2ccccc2)n2nc(N)nc2N1 (stereo not drawn)
  A: -8; B: 9; C: 6.7; D: 17; E: 1; F: 3680; G: -6

Cc1cccc(CSc2nc3nc(C)cc(C)n3n2)c1
  A: 13; B: 4; C: 0.1; D: 6; E: -2; F: 2898; G: -2

C=C1C(C(=O)Nc2cccc(OC)c2)C1C(=O)Nc1cccc(OC)c1 (stereo not drawn)
  A: -14; B: 0; C: -2.3; D: -2; E: -6; F: 2456; G: 3

CCCCc1nc2cc(C(=O)N3CCCCC3COC)ccc2o1 (stereo not drawn)
  A: -1; B: 5; C: 4.9; D: 15; E: 4; F: 4358; G: 1

Cc1cc(C(F)(F)F)nn1Cc1n[nH]c(=S)n1-c1ccc(Cl)cc1
  A: -8; B: 1; C: 6.7; D: 4; E: 4; F: 19410*; G: 7

CCC(C(=O)Nc1nc(C)c(C(=O)OC)s1)c1ccccc1 (stereo not drawn)
  A: -16; B: 1; C: 6.5; D: 6; E: -4; F: 3211; G: -6

CCc1ccc(-c2csc(NC(=O)Oc3ccccc3)n2)cc1
  A: -23; B: 2; C: 4.6; D: 7; E: 6; F: 2555; G: -3

COc1ccc(NC(=O)c2ccccc2NC(=O)CN2CCCCCC2)cc1
  A: -16; B: 4; C: 5.3; D: 4; E: 5; F: 3780; G: x

COC(=O)c1c(NC(=S)NN2CCOCC2)sc2c1CCCC2
  A: -19; B: 4; C: -0.1; D: 11; E: 9; F: 4057; G: 5

Cc1sc(NC(=O)C2=COCCO2)nc1-c1ccc(F)cc1
  A: -10; B: -4; C: 3.3; D: 3; E: 0; F: 4695; G: -1

CCOc1ccc(C(=O)CCNC(Cc2cnc[nH]2)C(=O)O)cc1 (stereo not drawn)
  A: -17; B: 1; C: 0.8; D: 5; E: 1; F: 10917; G: -9

CC(OC(=O)C1=COCCO1)C(=O)Nc1ncc(Cl)cc1Cl (stereo not drawn)
  A: -13; B: 0; C: 0.4; D: 9; E: 13; F: 5798; G: x

COc1ccccc1N(C)S(=O)(=O)c1ccc(C(=O)N2CCC2)cc1
  A: -6; B: 3; C: 6.2; D: 2; E: 7; F: 5757; G: x

CCO[C@H]1OC(C(=O)N2CCCCCCC2)=C[C@@H](c2ccc(C(F)(F)F)cc2)[C@@H]1CCCO
  A: -4; B: x; C: x; D: x; E: x; F: 3059; G: -4

Cc1ccc(CNC(=O)CN(c2ccc(C)cc2)S(=O)(=O)c2c(C)nn(C)c2C)cc1
  A: -9; B: 3; C: -1.5; D: 2; E: 3; F: 5387; G: -6

COc1cc(/C=N/N2CCN(C3c4ccccc4-c4ccccc43)CC2)cc(OC)c1OC
  A: -19; B: x; C: x; D: x; E: x; F: 2337; G: -20

O=Nc1c2ccc[nH]c-2c2ccc([N+](=O)[O-])cc12
  A: -9; B: 8; C: 8.4; D: -3; E: 2; F: 2021; G: 1

CCc1c(C)[nH]c2ccc(C)cc2c1=O
  A: -17; B: 3; C: 1.4; D: x; E: x; F: 3113; G: 5

COc1cc(NC(=O)Cn2cnc(S(=O)(=O)N3CCOCC3)c2)cc(OC)c1OC
  A: -21; B: -6; C: -5.3; D: -7; E: 0; F: 5354; G: 9

COc1cc(OC)cc(C(=O)NCCNC(=O)c2ccco2)c1
  A: 0; B: -4; C: 4.0; D: 10; E: -1; F: 3242; G: -15

COc1cc(OC)cc(C(=O)N[C@H](C(=O)Nc2ccc(S(=O)(=O)N(C)C)cc2)C(C)C)c1
  A: -26; B: -13; C: -2.4; D: -15; E: -3; F: 4644; G: -1

O=C(CCC1CCN(C(=O)Cc2c(F)cccc2F)CC1)NC1CC1
  A: -35; B: -3; C: -1.9; D: 0; E: -2; F: 5338; G: 6

CCn1c2ccccc2c2nnc(SCC(=O)Nc3cc(C)on3)nc21
  A: -6; B: 12; C: 6.4; D: 4; E: -5; F: 6662; G: -9

O=C(CNC(=O)c1ccc(Oc2ccccc2)cc1)OCc1ccc(Br)cc1
  A: -12; B: 7; C: -0.2; D: 2; E: 3; F: 2071; G: -6

Cc1ccc(NC(=O)CCn2cccc2)cc1
  A: -30; B: 3; C: 6.6; D: 17; E: 12; F: 9341; G: -5

CC(C)Cn1c(N)c(C(=O)COC(=O)CC23CC4CC(CC(C4)C2)C3)c(=O)n(C)c1=O
  A: -8; B: 8; C: -0.8; D: 8; E: 5; F: 2400; G: 20

Cc1cc(OC2CCCCC2)nc(NCc2ccccc2)n1
  A: x; B: 3; C: 3.7; D: 6; E: -4; F: 6432; G: 0

CCCn1nc2cc(C(=O)NCCc3ccc(C)cc3)ccc2c1OCC
  A: 1; B: -10; C: 6.6; D: 11; E: 9; F: 3552; G: 1

Other structures follow:
Assay codes – A = PrP UTR inh; B = ugtP null kill; C = RN4220 kill; D = Mtb hypoxia inh; E = Mtb hypoxia inh growth; F = Bead autofluor; G = BJeLR lethal
CCN(CC)C(=O)Cn1cc(C(=O)C(=O)N2CC=C(c3ccccc3)CC2)c2ccccc21
  A: -10; B: 7; C: 5.7; D: 9; E: 2; F: 4610; G: x

COc1ccc2nc(C)cc(N3CCN(c4ccccc4)CC3)c2c1
  A: -16; B: 1; C: 3.1; D: 9; E: 7; F: 5932; G: 9

Cc1cc2nc(/N=C(\N)NC(=O)N3c4ccccc4Sc4ccccc43)nc(C)c2cc1C
  A: -15&-19; B: -2; C: 7.6; D: 4; E: 3; F: 3741&2072; G: x

Cc1nc(N(C)Cc2ccccc2)c2nnn(Cc3ccccc3)c2n1
  A: -14; B: 30; C: -8.4; D: 0; E: 3; F: 4517; G: -2

O=C(COC(=O)c1ccc([N+](=O)[O-])s1)Nc1ccc(F)cc1
  A: -34; B: 7; C: 7.5; D: 13; E: -8; F: 3108; G: x

COc1ccc(-c2nc3cc(NC(=S)NC(=O)Cc4ccccc4)ccc3o2)cc1
  A: -78; B: 5; C: 2.9; D: 10; E: 1; F: 2073; G: -6

CC(=O)N1CCSc2ccc(S(=O)(=O)NCc3ccccc3)cc21
  A: -4; B: -1; C: 6.6; D: 3; E: 8; F: 5944; G: 7

CC1SC(=NC(=O)c2ccco2)NC1=O (stereo not drawn)
  A: -27; B: -8; C: -3.8; D: -18; E: -2; F: 5109; G: 0

Cn1ccc(C(=O)N/N=C/c2ccncc2)n1
  A: -9; B: x; C: x; D: x; E: x; F: 4374; G: 13
